# Env fusion inh – inhibitors of HIV-1 Env-driven cell-cell fusion, primary screen, HeLa-JRFL effector, CEM21 target cells, luciferase | inhibition, % at 12.3 µM | actives 1.1% (n = 360,000);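 active = mean replicate inhibition score of at least 50 and every replicate individually at or above 50; inconclusive = only one of the two criteria met; inactive = mean below 50 and not all replicates reaching 50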;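 also: 0% = plate neutral controls and 100% = maraviroc near 300 nM; one replicate is shown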
# UUG fidelity – modulators of yeast start codon fidelity, primary screen, whole organism, S. cerevisiae, single point, plate reader. S. cerevisiae UUG-firefly luciferase reporter, luminescence/redox ratio. activity score, % at 18.7 µM. actives 0.13% (n = 350,000). AID 602363, 2012;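 active = replicate mean at a twofold rise or more, about +100% in these data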;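 also: firefly luciferase made from a UUG start codon reports start codon fidelity; reporter light over untreated wells divided by growth signal over untreated wells; some hits fall short of that in this replicate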
# MT1-MMP act inh – blockers of MT1-MMP proenzyme processing, primary screen, HT1080 RFP-PRO-GFP cells, GFP/RFP fluorescence. GFP/RFP ratio fluorescence, overnight; percent of plate control window, DMSO zero. GFP/RFP ratio change, % at 20 µM. actives 0.061% (n = 360,000);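 active = GFP/RFP ratio change of at least 30% with cell ATP level not reduced by more than half and red fluorescence within 50% of control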; also: strong numbers were not always called active
#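 Compound: 20 µM single dose, 1% DMSO / System: HT1080 RFP-PRO-GFP cells / Controls: DMSO and RFP-L50D-GFP cell wells / Read-out basis: GFP/RFP fluorescence ratio / Schedule: overnight compound exposure at 37 °C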
# eIF4H FP inh – human eIF4H binding inhibitors, primary screen, translation initiation inhibitor project, biochemical, uHTS, fluorescence polarization | Eukaryotic translation initiation factor 4H (Homo sapiens), Q15056 | eIF4H fluorescence polarization binding assay | inhibition, % at 35 µM | actives 0.94% (n = 290,000);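 active = 50% or more with normal probe brightness, or confirmed in later tests; inconclusive = above 50% with abnormal brightness, or retests that disagree; inactive = below 50% or failed in later tests; about a fifth of its hits are not listed in these tables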;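 also: calls also rest on retests at 20 µM and on dose response follow-up; 0% = protein and probe with vehicle and 100% = probe without protein; strong numbers were not always called active; many hits fall short of the cut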
# CSC inhib – cancer stem cell viability inhibitors, primary screen, luminescence. cancer stem cell-like cells viability. inhibition, % at 7.5 µM. actives 1.1% (n = 300,000). AID 2717, 2010;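 active = mean at 75% or more and at least half the replicates too; inconclusive = mean and replicates disagree; tested in HMLE shEcad cells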;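 also: 0% = median of negative and 100% = median of positive control wells; the first replicate is given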
# PABP FP inh – PABP poly(A) RNA binding inhibitors, primary screen, biochemical, fluorescence polarization, uHTS; Polyadenylate-binding protein 1 (Homo sapiens), P11940; actives 1% (n = 290,000); inhibition, % at 35 µM;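 active = 50% or more with normal probe brightness, or confirmed in later tests; inconclusive = above 50% with abnormal brightness, or retests that disagree; inactive = below 50% or failed in later tests; about a fifth of its hits are not listed in these tables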;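 also: calls also rest on retests at 20 µM and on dose response follow-up; controls were probe without protein and protein plus probe with vehicle; some compounds called inactive have numbers as strong as hits; many hits fall short of the cut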
# Target sequence (P11940 whole entry, looked up): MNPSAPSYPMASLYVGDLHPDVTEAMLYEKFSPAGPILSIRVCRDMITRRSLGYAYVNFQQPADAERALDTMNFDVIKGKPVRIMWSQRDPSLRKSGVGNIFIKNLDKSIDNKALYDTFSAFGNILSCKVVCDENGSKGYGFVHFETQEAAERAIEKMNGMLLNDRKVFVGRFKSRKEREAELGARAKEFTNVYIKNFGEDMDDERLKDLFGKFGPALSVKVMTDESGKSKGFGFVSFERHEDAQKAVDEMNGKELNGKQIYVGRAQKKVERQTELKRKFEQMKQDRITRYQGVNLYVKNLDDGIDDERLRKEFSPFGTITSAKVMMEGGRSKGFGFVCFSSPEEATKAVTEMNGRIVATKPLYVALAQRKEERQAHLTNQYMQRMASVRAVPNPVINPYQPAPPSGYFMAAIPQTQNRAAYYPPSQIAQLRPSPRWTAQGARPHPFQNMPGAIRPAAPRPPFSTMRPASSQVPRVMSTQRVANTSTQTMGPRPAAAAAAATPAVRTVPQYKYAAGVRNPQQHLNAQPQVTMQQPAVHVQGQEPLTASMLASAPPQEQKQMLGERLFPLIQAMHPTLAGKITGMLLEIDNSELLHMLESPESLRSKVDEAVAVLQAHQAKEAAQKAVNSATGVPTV
# Rce1 inh – yeast Rce1p protease inhibitors, primary screen, biochemical, fluorescence, cell-free homogeneous. CAAX prenyl protease 2 (Saccharomyces cerevisiae (strain ATCC 204508 / S288c)), Q03530. yeast membranes, quenched prenylated peptide cleavage fluorescence. calls only. actives 0.27% (n = 290,000);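 active = fall in fluorescence gain of 50% or more versus controls, with final raw signal at or below 3038400; inconclusive = same 50% fall but final raw signal above 3038400; inactive = fall in fluorescence gain under 50%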;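 also: plate controls were neutral control wells for no effect and wells lacking membranes for full effect; tested at 10 µM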
# Target sequence (Q03530 whole entry, looked up): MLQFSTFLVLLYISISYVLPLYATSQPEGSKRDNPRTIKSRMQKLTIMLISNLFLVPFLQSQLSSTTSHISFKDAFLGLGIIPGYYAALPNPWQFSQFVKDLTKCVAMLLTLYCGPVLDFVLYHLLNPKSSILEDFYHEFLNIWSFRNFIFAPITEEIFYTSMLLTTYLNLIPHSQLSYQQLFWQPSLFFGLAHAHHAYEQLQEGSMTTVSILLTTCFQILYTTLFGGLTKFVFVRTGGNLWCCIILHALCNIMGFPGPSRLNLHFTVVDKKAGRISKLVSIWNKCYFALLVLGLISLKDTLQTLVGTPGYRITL
# eIF4H FP inh retest – also measured in eIF4H FP inh; calls as there; inhibition, %; compound at 20 µM; confirmation average;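 mean of two retest wells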
# PABP FP inh retest – further read-out of PABP FP inh, marked with its call; inhibition, %; compound at 20 µM; confirmation repeats;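 mean of two retest wells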
# MT1-MMP act inh RFP – second read-out of MT1-MMP act inh, no call of its own (marks repeat the call); RFP signal change, %; measured here: RFP expression control read;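 0 = vehicle wells; hits needed this value within 50% of zero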
# An asterisk follows results filed as active; i = inactive; ? = inconclusive; · = not tested or not shown.
SMILES,Env fusion inh,UUG fidelity,MT1-MMP act inh,MT1-MMP act inh RFP,eIF4H FP inh,CSC inhib,PABP FP inh,Rce1 inh,others
CCOC(=O)c1nncc(-c2ccccc2)n1,17,-7,-1,0,·,-9,·,·,
CCOc1ccc(C(C)NC(=S)NC2CCCCC2)cc1OCC (stereo not drawn),-29,·,7,-4,-3,-1,-1,i,
Cc1ccc(S(=O)(=O)N2C[C@H]3[C@H]4C(=O)N(C5CCCCC5)C(=O)[C@H]4CC(=O)[C@H]3[C@@H]2c2cccc3ccccc23)cc1,35,-2,-1,-1,·,·,·,·,
O=c1c2ccc(Cl)cc2[nH]c(=S)n1CCCN1CCOCC1,-14,-4,2,-1,4,-10,-13,i,
CCOc1ccc2c(c1)ncn2Cc1ccccc1,-6,·,2,1,-3,-2,-7,i,
CCC(=O)Nc1sc(C(=O)Nc2ccccc2)c(C)c1C(=O)OC,-31,5,1,-2,1,14,2,i,
COC(=O)C(C)n1cnc2c(nnn2-c2cccc(OC)c2)c1=O (stereo not drawn),-3,-5,1,-2,-10,-11,9,i,
Nc1cc(=O)[nH]c(SCc2ccc(Cl)cc2Cl)n1,19,-15,-2,-33,4,1,4,i,
CCOc1ccc(CN(C)C(=O)CNC(=O)C2CCCCC2)cc1,-10,0,7,6,1,0,-12,i,
O=C(O)Cn1cc(/C=C2\SC(=O)N(c3ccccc3)C2=O)c2ccccc21,25,-13,0,-1,-9,-3,8,i,
O=C(CN(C(=O)CCC(=O)Nc1nccs1)c1cccc(F)c1)NCc1ccc(F)cc1,1,2,3,3,-8,0,7,i,
O=C(NCCc1ccc(F)cc1)C1CCC(=O)N(CC2CCCCC2)C1 (stereo not drawn),-21,-16,2,3,·,·,·,·,
CC(=O)OCCNc1cc(Sc2nc3ccccc3[nH]2)c2nonc2c1[N+](=O)[O-],-68,·,5,-3,17,41,-10,i,
N#CCCn1c(-c2nonc2NC(=O)c2ccccc2Cl)nc2ccccc21,·,-19,3,1,1,-14,-3,i,
CCCOc1ccccc1N/C(=N/c1nc(C)cc(C)n1)NC(=O)COc1ccc(OC)cc1,·,-18,-3,-15,5,28,0,i,
Cc1ccc(C)c(Cn2nnc3c(=O)[nH]c(C(=O)NCc4ccco4)nc32)c1,23,2,0,-1,11,·,13,i,
CN(CCC#N)C(=O)COc1ccc(Br)cc1Cl,12,-11,2,7,7,1,7,i,
COc1ccc(OC)c2c1cc(C(=O)N[C@@H](C)C(=O)N[C@@H](C(=O)O)c1ccccc1)n2C,-1,-1,-1,1,4,-11,5,i,
CC(C)N(Cc1nc(-c2ccccc2)no1)C(=O)C(Cl)(Cl)Cl,15,·,1,-5,-2,-5,-6,·,
Cc1cnc(NC(=O)c2cc3c(C)nn(Cc4ccccc4Cl)c3s2)s1,-19,·,7,2,-9,35,3,i,
COc1cccc(-c2noc(-c3cccs3)n2)c1,i,·,-1,2,-1,-15,-5,i,
Cc1ccc(NC(=O)COC(=O)Cc2c[nH]c3ccccc23)cc1F,-49,-2,8,6,·,·,·,·,
CS(=O)(=O)Nc1ccc2c(c1)C(=O)OC2,-125,-7,-1,3,1,·,7,i,
Cc1cc(C)nc(NC(=O)c2ccc(C)o2)n1,-15,-23,2,5,5,-11,12,i,

# 2 compounds drawn at random from those above:
SMILES,Env fusion inh,UUG fidelity,MT1-MMP act inh,MT1-MMP act inh RFP,eIF4H FP inh,CSC inhib,PABP FP inh,Rce1 inh,others
N#CCCn1c(-c2nonc2NC(=O)c2ccccc2Cl)nc2ccccc21,·,-19,3,1,1,-14,-3,i,
Cc1cnc(NC(=O)c2cc3c(C)nn(Cc4ccccc4Cl)c3s2)s1,-19,·,7,2,-9,35,3,i,

# Other records follow.
SMILES,Env fusion inh,UUG fidelity,MT1-MMP act inh,MT1-MMP act inh RFP,eIF4H FP inh,CSC inhib,PABP FP inh,Rce1 inh,others
c1cncc(-c2ccnc3ncnn23)c1,-52,·,0,0,-1,-4,-13,i,
O=C(Cn1cnc2cc(Cl)ccc2c1=O)Nc1ccc2c(c1)OCO2,·,-20,1,2,0,-10,-7,i,
CCOc1ccc(Cl)cc1/C=N/NC(=O)CNC(=O)c1ccccc1,-75,2,-1,-1,-6,0,3,i,
Cc1cc(Cl)ccc1OCC(=O)Nc1ccccc1C(=O)N1CCOCC1,51,-20,-1,-4,14,-22,-2,i,
CCN(c1ccccc1)S(=O)(=O)c1ccc(Cl)c(NC(=O)CSc2nnc(C)s2)c1,10,·,-1,-4,-2,7,-4,i,
O=C1NC(=S)N/C1=C\c1ccc(N2CCOCC2)cc1,-24,·,-7,3,-11,-6,-1,·,
CCOCCCNC(=O)C(c1ccc(OC)cc1)N(Cc1cccs1)C(=O)c1ccccc1O (stereo not drawn),6,·,0,2,-6,-10,5,i,
COc1cc(C(=O)NCC(c2ccco2)N2CCc3ccccc32)cc(OC)c1OC (stereo not drawn),-2,·,0,-2,·,-8,·,i,
Cc1nnc2nc(-c3ccccc3)nc(-c3ccccc3)n12,-6,-6,-3,-3,0,8,5,i,
COc1cc2c(cc1OC)C(COc1ccc3c(C)cc(=O)oc3c1)N(C(=O)c1ccco1)CC2 (stereo not drawn),-69,-20,6,-5,3,-5,-12,i,
CCN(CC)CCSc1nc2ccccc2c(=S)n1-c1ccccc1,-9,·,·,·,3,19,2,i,
O=C(Cc1ccccc1)NNC1CC(=O)N(c2ccc(Br)cc2)C1=O (stereo not drawn),-21,-23,5,6,-1,10,-4,i,
CC(=O)NC(=O)COC(=O)c1ccc2ncsc2c1,6,·,1,3,-4,-4,1,i,
O=C(NCC1CCCO1)c1[nH]c(C(F)(F)F)nc1-c1ccccc1 (stereo not drawn),-16,-10,4,3,·,·,·,·,
CS/C(Nc1cc(Cl)ccc1Cl)=C(/C#N)C(=O)c1ccco1,-126,-21,1,5,-1,35,16,i,
O=C(CSc1nc2ccccc2s1)N1c2ccccc2Sc2ccccc21,-34,-3,-6,-8,-1,13,-10,i,
CCn1cc(C(=O)NCc2cccs2)c(=O)c2ccc(C)nc21,·,-2,10,3,-1,-14,-3,i,
CCCCSCc1ccc(C(=O)O)o1,-70,-19,6,4,-4,-12,0,·,
COCCNC(=O)C1Nc2ccc(OC(F)(F)F)cc2C2C=CCC12 (stereo not drawn),23,7,6,-2,·,-9,·,i,
COc1cc(-c2nn3c(-c4cccc(C)c4)nnc3s2)cc(OC)c1OC,-41,-16,2,0,-4,·,6,i,
COc1cc(NC(=O)c2cccs2)c(C(=O)OCC(=O)NC(=O)NC(C)(C)C)cc1OC,-32,-12,1,-18,10,-1,6,i,
O=C(Cn1cnc2ccccc2c1=O)c1ccccc1,-26,-12,1,-3,0,-1,3,i,
FC(F)(F)c1cccc(OCc2nnc3n2CCC3)c1,3,·,6,4,-3,-8,3,i,
COC(=O)c1ccc(-n2cncn2)c(F)c1,-15,-13,-2,5,0,·,-3,i,
Cc1nc2cccc(C(=O)NC3CCCCC3)c2o1,-282,0,-11,-7,-6,2,-10,i,
Cc1cccc(CSc2cccc3cccnc23)c1,-43,-31,4,-2,0,45,-14,i,
N#CC[C@H](Cc1ccccc1)N1CC[C@@H](NC(=O)OCc2ccccc2)CCC1=O,?,-21,3,-2,-16,-19,-11,i,
Cc1ccc(N2C(=O)C(Cl)=C(N3CCOCC3)C2=O)cc1Cl,·,·,4,10,-3,-1,-6,i,
CC(C)C[C@@H](NC(=O)[C@H]1CCCN1C(=O)Cc1ccccc1)C(N)=O,-17,-4,-2,0,-10,-13,4,i,
Cc1cc(N)n(Cc2cccs2)n1,12,·,-3,4,9,-3,5,i,
CN1CCN(C2CN(C3CCCC3)S(=O)(=O)C2)CC1 (stereo not drawn),-5,-5,4,7,·,·,·,·,
CC1CN(C(=O)c2ccc(Oc3ccccc3)cc2)CC(C)O1 (stereo not drawn),3,·,-4,-3,-9,-11,77,i,eIF4H FP inh retest=-12;PABP FP inh retest=5
Cc1ccccc1C(=O)Nc1ccc(N2CCOCC2)nc1,-46,-1,1,3,0,-12,3,i,
O=C1C2C(c3ccccc3)C=CC(c3ccccc3)C2C(=O)N1C1CCCCC1 (stereo not drawn),·,-6,-1,3,10,9,1,i,
COc1ccc(CN2CCN(S(=O)(=O)c3ccc(NC(C)=O)cc3)CC2)cc1,-10,-17,-6,-17,37,12,44,i,
CN(Cc1ccccc1)C(=O)c1ccc(NC(=O)Cc2ccc(NC(=O)C3CCN(C(=O)c4ccccc4)CC3)cc2)cc1,1,4,-2,-12,·,·,·,·,
O=C(N/N=C/c1ccccc1)NC1CCCCC1,·,·,-5,-2,6,0,0,i,
COc1cccc2cc(C(=O)C3=C(O)C(=O)N(c4cc(C)on4)C3c3cccs3)oc12 (stereo not drawn),-9,-22,-30,7,12,2,21,i,
Cc1ccc(F)cc1C(=O)N1CCOCC1c1cc(C(=O)NCc2ccccc2)no1 (stereo not drawn),5,5,-3,3,·,·,·,·,
Cc1c(Cl)cccc1NC(=O)c1cccc(OC(F)F)c1,·,-10,6,4,-6,·,5,i,
COc1ccc(-c2cn3cccnc3n2)cc1NC(=O)CC(C)C,12,-26,12,1,-5,-10,-14,i,
COc1ccc(C2=Nn3c(nnc3-c3ccccc3OC)SC2)cc1OC,-15,-25,14,-8,-7,-3,-7,i,
O=C(CCN1CCOCC1)NNC(=S)NC(=O)c1ccccc1,4,5,2,2,2,-1,24,i,
CCC(CC)C(=O)Nc1ccc(S(=O)(=O)Nc2nccs2)cc1,9,·,0,6,-1,-15,16,i,
COc1ccccc1N(C)S(=O)(=O)c1ccc(C(=O)Nc2ccc(C(N)=O)cc2)cc1,·,-3,1,-5,·,4,·,·,
Cc1cccc(N2C(=O)CN(Cc3sccc3C)C2=S)c1,·,·,4,3,7,·,24,i,
Cc1ccc(C(=O)NNS(=O)(=O)c2ccc(F)cc2)cc1,-17,-4,-3,1,-7,-7,4,i,
COc1cc(NC(=O)c2ccccc2C)c(OC)cc1NC(=O)CN1CCOCC1,12,·,2,4,-4,-9,-2,i,
CC(C)CN(C(=O)COc1ccc(C(C)(C)C)cc1)C1CCS(=O)(=O)C1 (stereo not drawn),-6,-6,-7,0,·,-4,·,i,
CCNC(=O)CN1C(=O)NC2(CCCCCC2)C1=O,-24,-19,0,-1,-6,-4,-8,i,
CC(C)OC(=O)C1=C(N)N2C(=O)CSC2=C(C(=O)OC(C)C)C1,-15,-1,-13,0,-7,-24,-11,i,
CCN(Cc1ccncc1)C(=O)c1ccccc1NS(=O)(=O)c1ccc(Br)cc1,15,·,1,3,9,1,6,i,
O=C(CN1CCN(S(=O)(=O)c2ccc(Cl)s2)CC1)NCc1ccc(Cl)cc1,-56,-4,1,-4,-1,0,2,i,
COC(=O)/C=C1\S/C(=N/N=C/c2ccccc2)NC1=O,0,-15,-1,-3,3,13,-22,i,
CCOC(=O)N1CCN(C(=O)Nc2ccc(Cl)cc2)CC1,-5,-4,-2,2,-9,5,-6,i,

# Assay outcomes deposited in PubChem BioAssay by several laboratories.

# Not all compounds are listed, so the mix of outcomes need not match the whole.
